# miR-21 FLuc: raises the signal of a miR-21 reporter; HeLa miR-21 FLuc reporter, luciferase, 48 h; Potency, µM (doses to about 38.3 µM), for inactives: top-dose reporter change, positive = more light; 340,000 tested, under 10 active; active = well fitted rising curve with a large enough effect; inconclusive = small, poorly fitted or top-dose-only effect; inactive = no such curve, though single readings can be large or run the other way;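 note: % of control where 0% means no effect; miR-21 action dims this reporter so a rising signal means less miR-21 action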
#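 Luminescence from a firefly luciferase reporter carrying a miR-21 binding site downstream, stably expressed under a CMV promoter in HeLa cells that make miR-21 endogenously, reports miRNA modulation after 48 h compound exposure up to approximately 40uM final.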
# Rango release inh: prevents RanGTP from dissociating the Rango-importin beta complex | AID 540253 | Biochemical FRET Rango-importin beta, RanGTP-induced dissociation | actives 0.071% (n = 340,000) | Potency, µM (highest dose often 46.1 µM), inactives show at the highest dose activity change, negative = inhibition; active means falling FRET ratio curve, often poorly fitted, with flat reads before Ran was added; inconclusive means other falling curves, or compound fluorescence or quenching; inactive means flat or rising ratio curve;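 note: potency is the fitted concentration of half-maximal effect; % of control where 0% means no effect; nearly all actives have a fitted effect of over 45% in size; -100% = wells without RanGTP and RCC1; the record marks most hits as doubtful in a second field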
#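 Compounds sat 5 min at room temperature with 0.1 uM Rango biosensor plus 0.25 uM importin beta, then FRET pre-read. RanGTP-RCC1 (0.6 uM Ran, 2mM GTP, 0.2 uM RCC1) added for 45 min, and the CFP/YFP post-read measured blocked complex dissociation.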
# Rango-impB inh: prevents formation of the Rango-importin beta complex; Q14974; Rango CFP/YFP FRET sensor + importin beta, 45 min; Potency, µM (highest dose often 92.2 µM), for inactives: at the highest dose inhibition of complex formation; actives 0.031% (n = 340,000); active = rising FRET ratio curve, often small or poorly fitted; inconclusive = mostly compound fluorescence or quenching in the first reads; inactive = flat curves in all reads;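 note: potency is the fitted concentration of half-maximal effect; 0% = DMSO wells and 100% = buffer wells lacking importin beta; nearly all actives have a fitted effect of over 15% in size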
#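 FRET biosensor (snurportin 1 IBB flanked by EYFP and cerulean), 50 nM, with compound 5 min, then 0.125 microM importin beta in PBS, 1 mM DTT, 0.02% Tween-20, 0.1% BSA. CFP/YFP ratio read after 45 min at room temperature; pre-read flags interference.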
# GLA inh pH 4.5: alpha-galactosidase A (human) inhibition, pH 4.5 | AID 1467 | 230,000 tested, under 10 active | purified enzyme, 4-MU-alpha-Gal fluorescence, pH 4.5 | activity change, negative = inhibition, % at 105 µM | P06280; inconclusive = small, poorly fitted or top-dose-only inhibition, or a rising curve; inactive = flat fitted curve, though single readings scatter; no compound was filed as active;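 note: 0% = full activity with enzyme and -100% = basal without enzyme; dose as in the result columns while the protocol names 77 µM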
# Target sequence (P06280 whole entry, looked up): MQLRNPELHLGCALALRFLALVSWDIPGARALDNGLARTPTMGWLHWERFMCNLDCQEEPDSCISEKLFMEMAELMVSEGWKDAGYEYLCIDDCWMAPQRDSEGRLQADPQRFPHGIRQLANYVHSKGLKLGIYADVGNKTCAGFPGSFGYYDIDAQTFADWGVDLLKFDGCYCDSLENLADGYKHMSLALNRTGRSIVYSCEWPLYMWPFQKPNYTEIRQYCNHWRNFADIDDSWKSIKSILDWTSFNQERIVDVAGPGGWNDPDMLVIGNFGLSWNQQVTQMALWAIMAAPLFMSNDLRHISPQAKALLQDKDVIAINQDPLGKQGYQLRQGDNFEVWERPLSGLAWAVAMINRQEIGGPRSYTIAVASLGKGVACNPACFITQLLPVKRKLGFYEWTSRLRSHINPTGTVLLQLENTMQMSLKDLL
# * hit, by the source's call; ? = inconclusive; / = no result given; [ ] = another dose, or the depositor's remark. A portion of the library (hit frequency here may not be typical).
Rango-impB inh | GLA inh pH 4.5 | miR-21 FLuc | Rango release inh | Structure
-0.8% | -2.4 | -3.3% | -21.7% | CCOC(=O)C1=C(N)OC2=C(C(=O)CCC2)C1c1ccco1 (stereo not given)
-0.5% | -10.9 | -29.8% | 1.2% | COc1ccc(/C=C/C=N/NC(=O)COc2ccc(OC)cc2)cc1
-0.2% | -6.4 | 2.9% | 6.6% | CC(OC(=O)c1ccc2c(=O)n3c(nc2c1)CCCCC3)C(=O)Nc1ccc(F)cc1Cl (stereo not given)
? | 0.2 | -30.6% | ? | Cc1cccc(/N=C/c2sc3ccccc3c2O)n1
-1.4% | / | -7.2% | -4.3% | COc1ccccc1-n1nnnc1SCC(=O)NC1CCCCC1
6.3% | / | -3.4% | -5.7% | O=C(CN1CCN(S(=O)(=O)c2ccc(Br)cc2)CC1)c1ccc(O)c(O)c1
-0.6% | / | 2.2% | -5.1% | CCC1CCC(C(=O)NC(C(=O)NCCc2ccc(S(N)(=O)=O)cc2)C(C)C)CC1 (stereo not given)
-1.6% | / | / | -3.8% | CCC(C)CNC(=O)c1cccc(OC2CCN(CC(C)(C)C)CC2)c1 (stereo not given)
-1.4% | / | -7.5% | 2.2% | CCc1ccc(NC(=O)Cn2nc(C)n3cccc3c2=O)cc1
-0.1% | / | / | 2.9% | Cc1ncc[nH]1
2.1% | / | / | -16.5% | CCCCn1cnc2c(SCCc3ccccc3)nc(N)nc21
-3.1% | / | 6.5% | 6.8% | Cc1nnc(N2CCCC(C(=O)NCc3cccc(F)c3)C2)c2nn(-c3ccccc3)c(C)c12 (stereo not given)
-0.8% | / | 0.1% | -5.1% | O=S(=O)(c1ccc(Cl)cc1)n1cnc2ccccc21
-2.7% | 2.4 | -0.5% | 0.2% | Cc1ccc(-c2cc(C(=O)Nc3c(C)n(C)n(-c4ccccc4)c3=O)[nH]n2)c(O)c1
0.8% | 2.1 | 26.2% | -4.5% | Oc1c(CN2CCN(c3ccccc3)CC2)cc(Br)c2cccnc12
-5.3% | / | -3.3% | -0.7% | Cc1ccccc1OCC(=O)NCCCNC(=O)c1ccncc1
0.7% | / | 4.2% | -8.9% | Cc1ncc([N+](=O)[O-])n1CC(=O)Nc1cccc(C(F)(F)F)c1
-1.8% | 9.5 | 2.2% | -5.0% | CN(C)c1cccc(C(=O)NCc2ccc(Cl)cc2)c1
-5.2% | -4.1 | -7.2% | 9.4% | COc1ccc(NC(=O)COc2cccnc2[N+](=O)[O-])cc1OC
-0.7% | -10.6 | ? | 12.6% | N=c1c2c(-c3ccccc3)c(-c3ccccc3)n(Cc3ccco3)c2ncn1CCO
0.1% | 0.1 | -7.8% | 0.3% | COc1ccc(NCc2nnc(SCC(=O)c3ccc(OC)cc3)o2)cc1
0.9% | -9.4 | 0.4% | ? | CCC(CC)c1nnc(NC(=O)c2nc3nc(C)cc(C)n3n2)s1
0.4% | / | 2.0% | -4.7% | O=C(CN(C(=O)c1csnn1)c1cccc(Cl)c1)NCCc1ccccc1
? | 1.1 | -58.9% | ? | CCOC(=O)c1sc(Nc2nc3ccc(OC)cc3s2)cc1C

# 2 records picked at random from those above, as already listed:
Rango-impB inh | GLA inh pH 4.5 | miR-21 FLuc | Rango release inh | Structure
0.9% | -9.4 | 0.4% | ? | CCC(CC)c1nnc(NC(=O)c2nc3nc(C)cc(C)n3n2)s1
? | 1.1 | -58.9% | ? | CCOC(=O)c1sc(Nc2nc3ccc(OC)cc3s2)cc1C

# (listing goes on)
Rango-impB inh | GLA inh pH 4.5 | miR-21 FLuc | Rango release inh | Structure
2.3% | -3.4 | -51.4% | 17.7% | Cc1ccc(-c2csc(-c3c[nH]c4ccccc34)n2)cc1
-0.9% | 8.1 | -1.1% | 5.6% | COc1ccc(CN2c3cc(S(=O)(=O)N4CCOCC4)ccc3N3CCCC32)cc1 (stereo not given)
? | 4.5 | -3.2% | -12.8% | COc1ccc2[nH]c(=O)c(CNC3CCCCC3)cc2c1
0.2% | 2.3 | -7.6% | -1.4% | Clc1ccc(C(c2nnnn2C2CCCC2)N2CCN(Cc3ccncc3)CC2)cc1 (stereo not given)
? | -0.3 | -3.3% | -17.8% | COc1cccc(/C=N/N2C(=O)NC3(CCCCC3)C2=O)c1O
1.4% | / | / | 11.9% | OCC1OC2C(NC(=S)N2c2ccccc2)C(O)C1O (stereo not given)
? | / | / | -13.0% | CCN(C(=O)COC(=O)/C(=C/c1ccccc1)n1nnnc1C)C1CCCCC1
0.6% | / | / | -0.2% | CCc1ccccc1OCC(=O)N1CCN(c2ncccn2)CC1
1.3% | / | / | ? | CC(=O)N1CCN(S(=O)(=O)c2cccc(C(=O)NNC(=O)COc3c(C)cccc3C)c2)CC1
-1.6% | -10.4 | -17.1% | 19.3% | Cc1ccccc1CO/N=C/c1[nH]ncc1Br
-3.5% | -5.2 | -0.6% | 19.7% | Cc1ccc(S(=O)(=O)Nc2ccccn2)cc1[N+](=O)[O-]
4.8% | 1.5 | -18.4% | 31.6% | Cc1ccc(CSCC(=O)Nc2ccc3c(c2)OCO3)cc1
-0.8% | 2.1 | -4.8% | 5.5% | Oc1ccccc1N=Nc1ccccc1O
? | 7.0 | -2.6% | -21.6% | Cc1nc(C)c(C(=O)Nc2nc3c(C)cccc3s2)o1
-0.6% | 9.7 | -8.2% | -5.0% | NS(=O)(=O)c1ccc(CCNC(=O)CSc2nc3ccccc3c3nc(CCN4CCCCC4)nn23)cc1
8.0% | / | / | -8.5% | CC(=O)NC1CC2CCCC(C1)N2C(=O)Nc1cccc(C)c1 (stereo not given)
3.2% | / | -12.9% | -4.0% | COc1cccc(/C=C2/C(=O)NN(c3ccccc3)C2=O)c1
2.9% | -3.8 | 1.3% | -5.4% | CCOc1ccc(-n2c(SCC(=O)Nc3cc(OC)c([N+](=O)[O-])cc3C)nc3ccccc32)cc1
-4.1% | 0.7 | -7.7% | 0.8% | O=C(Cc1ncn[nH]1)NCCc1ccccc1
0.0% | -10.7 | 10.8% | -11.2% | NC(=O)c1cc(Br)cc2c3c([nH]c12)CCCC3
4.6% | / | -0.5% | 16.2% | CC(NCCc1ccc(S(N)(=O)=O)cc1)C(=O)NCc1ccccc1 (stereo not given)
0.7% | -6.5 | -6.8% | -1.2% | COC(=O)c1c(NC(=O)Cc2ccccc2)sc2c1C(C(=O)OC)CC2 (stereo not given)
3.5% | -10.5 | -28.9% | -9.2% | COc1ccc(NC(=O)ON=C2c3ccccc3-c3ccccc32)cc1
-5.2% | 0.6 | -6.0% | -7.3% | CCCSC1=C(C#N)C(c2ccccc2C)C(C(=O)OC)C(=O)N1 (stereo not given)

# Only Rango-impB inh, for some of the entries so far:
compound | Rango-impB inh
CCOc1ccc(-n2c(SCC(=O)Nc3cc(OC)c([N+](=O)[O-])cc3C)nc3ccccc32)cc1 | 2.9%
CC(NCCc1ccc(S(N)(=O)=O)cc1)C(=O)NCc1ccccc1 (stereo not given) | 4.6%
COC(=O)c1c(NC(=O)Cc2ccccc2)sc2c1C(C(=O)OC)CC2 (stereo not given) | 0.7%
CC(=O)NC1CC2CCCC(C1)N2C(=O)Nc1cccc(C)c1 (stereo not given) | 8.0%
O=C(Cc1ncn[nH]1)NCCc1ccccc1 | -4.1%
COc1ccc(NC(=O)ON=C2c3ccccc3-c3ccccc32)cc1 | 3.5%

# Later entries.
Rango-impB inh | GLA inh pH 4.5 | miR-21 FLuc | Rango release inh | Structure
-4.9% | -5.3[21.1 µM] | 1.1% | 12.2% | Cc1[nH]nc(S(=O)CC(=O)O)c1[N+](=O)[O-] (stereo not given)
-5.2% | / | / | -1.7% | COc1cc(C(=O)Nc2ccc(N3CCCS3(=O)=O)cc2)c([N+](=O)[O-])cc1OC
-2.6% | 4.0 | 6.6% | 12.6% | Cc1cccn2c(=O)c(C=O)c(Cl)nc12
1.1% | / | / | -2.0% | Cc1cccc(NC(=O)COC(=O)[C@@H]2CCCN2C(=O)c2cccs2)c1
-1.7% | 5.9 | -3.0% | 0.6% | N#CCc1ccc(NS(=O)(=O)c2ccc(N3CCCC3=O)cc2)cc1
-2.1% | 1.4 | -1.3% | -17.2% | O=C(O)c1cccc2[nH]c(C(F)(F)F)nc12
-1.6% | / | / | 16.7% | C[C@H](CO)N1C[C@H](C)[C@@H](CN(C)C(=O)NC2CCCCC2)Oc2ccc(NC(=O)C3CC3)cc2C1=O
3.4% | 6.4 | -0.6% | 11.5% | C=CC#CC1(O)CC(C)N(C)CC1C (stereo not given)
-3.5% | -0.4 | -14.4% | ? | Cn1c(SCC(=O)N/N=C/c2cccs2)nc2ccccc21
4.2% | -18.1 | 26.1% | 7.5% | Cc1ccc(-c2nc(N)sc2-c2ccc(C)cc2)cc1
-2.9% | 7.1 | 11.0% | 4.3% | Cc1nc2ccccc2n1CC(=O)NC(C)C1CC2CCC1C2 (stereo not given)
4.9% | -2.7 | 0.9% | 2.8% | Cc1cc(C)c2nc(NC(=O)c3ccc4c(c3)OCO4)sc2c1
-0.3% | -27.5 | 5.5% | 3.1% | CCn1c(=O)c2cc(C(=O)N(C)c3ccccc3F)sc2c2ccccc21
-2.7% | 1.4 | -5.8% | 2.4% | CCC(C)NC(=O)CCc1nc2ccccc2n1-c1ccccc1 (stereo not given)
5.9% | -8.0 | -6.4% | 10.1% | CC(C)(C)NC(=O)NC(=O)COC(=O)Cc1c(F)cccc1Cl
-2.2% | / | / | -7.4% | O=S(=O)(c1ccccc1)[C@@]1(c2ccccc2)C[C@@H]2ON=C(c3cccc(Br)c3)[C@@H]2C1
? | / | / | 2.6% | COc1ccc(NC(=O)CN(C)CC(=O)N(CC(C)C)c2c(N)n(CC(C)C)c(=O)[nH]c2=O)cc1
/ | 2.9 | -5.8% | / | CC(C)C(NC(=O)C12CC3CC(CC(C3)C1)C2)C(=O)NC1=NCCS1 (stereo not given)
? | 4.9 | -7.9% | -21.6% | O=c1cc(C(F)(F)F)c2sc(N3CCCCC3)nc2[nH]1
1.2% | -0.9 | -12.6% | -19.1% | CCOc1ccc(C2CC(c3cccc(OC)c3)Nc3nc(N)nn32)cc1 (stereo not given)
3.0% | 0.6 | -21.5% | -0.7% | Cc1ccc(OCCCNCCO)c(Br)c1
0.2% | -5.0 | 0.7% | 4.3% | O=c1c(C(c2ccc(Br)cc2)c2c(O)nc3n(c2=O)CCCS3)c(O)nc2n1CCCS2
-2.4% | -3.5 | -15.1% | -16.1% | O=C(Nc1c(C(=O)c2ccccc2)oc2ccccc12)c1cc(-c2ccccc2O)n[nH]1
0.5% | / | 14.2% | 3.1% | CC(C)/C=C(/C(=O)c1ccc(Cl)cc1Cl)n1cncn1
-5.6% | / | / | 12.2% | COc1cc(NC(=O)CN2C(=O)c3ccccc3S2(=O)=O)cc(OC)c1
-0.3% | -11.0 | -42.4% | -6.7% | O=C(Cc1ccccc1)N1CCc2ccccc21
0.1% | / | 2.3% | -12.7% | Oc1c(Br)cc(/C=N/n2c(-c3ccccc3)n[nH]c2=S)c(O)c1Br
0.6% | 0.8 | -54.3% | 14.4% | CC(C)=CC(=O)Nc1nnc(-c2ccccc2)s1
3.4% | 2.2 | -1.7% | -8.7% | O=C(CCSc1ccc(Cl)cc1)NCc1ccccn1
2.6% | 3.8 | -2.3% | 14.6% | COC(=O)c1cn(C(=O)c2cccc(C)c2)c2ccccc12
5.6% | / | -15.8% | 22.7% | Cc1cc(NC2CCCC2)n2nc(C)c(-c3ccccc3)c2n1
0.4% | / | 0.2% | 2.2% | Cc1ccc([N+](=O)[O-])cc1NC(=O)CN(C)CCOc1ccccc1
0.1% | -1.2 | 4.3% | 1.3% | Cc1ccc(C(=O)Nc2ccon2)cc1S(=O)(=O)N1CCOCC1
? | / | -12.3% | 11.7% | COc1cc(C2Nc3cc(C)c(C)cc3NC3=C2C(=O)CC(C)(C)C3)ccc1OC(C)=O (stereo not given)
? | -1.5 | -12.9% | ? | CCN(CC)c1ccc2cc(C#N)c(=O)oc2c1
-1.9% | -7.7 | -13.6% | -3.3% | COc1cccc(C(=O)NCc2ccccc2OC)c1
3.6% | -9.6 | -0.6% | 19.2% | Cc1cccn2c(=O)c(/C=N/O)c(N3CCOCC3)nc12
4.2% | 0.2 | 3.2% | 11.7% | CC1CC(C)CN(C(=O)CSc2nc(N)cc(=O)[nH]2)C1 (stereo not given)
6.3% | / | / | -11.2% | O=C(NCCC1CCCCN1S(=O)(=O)c1ccc(F)cc1)C(=O)NCc1ccncc1 (stereo not given)
